# MLL AF4-AF9 inh = MLL-AF4/AF9 protein interaction inhibition | hit rate 0.47% among 350,000 | inhibition, % at 10 µM | AlphaScreen, biotin-AF4 peptide binding to FLAG-AF9 | P42568;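 active means every replicate reaching a set inhibition limit, whatever the replicate mean, cut at about 25% in these data; inconclusive means mean inhibition reaches that limit but some replicates miss it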;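 further: 0% = plate neutral control median and 100% = total signal loss; the record names both 10 and 1 µM as test concentration; the first replicate is given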
# Target sequence (P42568 whole entry, looked up): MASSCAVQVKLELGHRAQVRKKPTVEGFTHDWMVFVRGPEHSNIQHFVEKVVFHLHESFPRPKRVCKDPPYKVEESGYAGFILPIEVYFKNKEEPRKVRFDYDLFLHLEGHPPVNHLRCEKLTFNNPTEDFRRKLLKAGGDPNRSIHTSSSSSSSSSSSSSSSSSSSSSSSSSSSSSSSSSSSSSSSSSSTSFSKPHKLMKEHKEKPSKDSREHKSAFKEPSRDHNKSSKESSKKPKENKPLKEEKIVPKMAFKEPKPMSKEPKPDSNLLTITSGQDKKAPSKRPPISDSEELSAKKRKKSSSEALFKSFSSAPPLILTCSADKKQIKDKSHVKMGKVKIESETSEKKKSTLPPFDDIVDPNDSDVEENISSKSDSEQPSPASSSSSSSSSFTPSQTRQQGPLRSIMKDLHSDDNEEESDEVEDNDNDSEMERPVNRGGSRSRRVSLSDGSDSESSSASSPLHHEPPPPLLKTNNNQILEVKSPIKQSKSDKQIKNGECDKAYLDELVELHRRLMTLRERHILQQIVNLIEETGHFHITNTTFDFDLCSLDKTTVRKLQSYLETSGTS
# ALR inh = inhibitors of human sulfhydryl oxidase ALR | purified ALR, DTT oxidation, H2O2 HRP-luminol luminescence | inhibition, % (test concentration not listed) | hit rate 3.8% among 290,000 | AID 485317;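 active means mean and each replicate at 75% or more; inconclusive means only one of the two met; inactive means neither met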;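 further: stock transfer was 7.5 nL into about 7.5 µL; 0% = neutral wells and 100% = wells with inactivated enzyme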
# rRNA inh HTS = inhibits bacterial ribosomal RNA function over humanized ribosomes | AID 720706 | E. coli WT GFP vs humanized-ribosome RFP mutants, fluorescence, 24 h; stronger effect = lower value; DMSO median 0, no signal -100 | GFP signal change (wild-type ribosome), % (concentration not given with the values) | hit rate 1.6% among 350,000;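 active means significant combined selectivity score with lowered wild-type GFP, culture density cut under 30%, mutant RFP and density less affected; inactive means any of these conditions unmet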; further: one replicate is shown; some compounds called inactive have numbers as strong as hits
# Vif A3G = HIV-1 Vif–A3G interaction blockers – biochemical, TR-FRET, GST-Vif 1-94, biotin-A3G peptide, dose response retest, primary screen (AID 1117319); inhibition, %, or IC50 in µM where a hit was titrated; hit rate 0.57% among 260,000; TR-FRET GST-Vif / biotin-A3G peptide binding; higher % means a stronger effect; test concentration not given here; strong numbers were not always called active;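 active means above the screen mean plus three standard deviations and confirmed in dose response; inconclusive means results disagree or hit not tested in dose response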;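 further: Vif residues 1-94 fused to GST binding biotinylated APOBEC3G peptide 110-148; 0% = full assay without inhibitor and 100% = GST in place of GST-Vif; retest series ran down from 100 µM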
# Ecoli growth = blocks Escherichia coli growth | OD600, 23 h; stronger effect = lower value | OD600 absorbance (concentration not given with the values) | hit rate 0.21% among 330,000 | AID 1053175;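 active means OD600 absorbance below the run mean of sample wells minus 3.6 SD, in any replicate, cut at about 0.56 in these data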;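 further: stock transfer was 300 nL into about 60 µL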
# HNF4A DNA FP = change in binding of human HNF4 alpha to DNA. hit rate 0.3% among 360,000. AID 1224865. HNF4a-FITC DNA binding, fluorescence polarization, 1 h. P41235. activity change, % at 10 µM; in the data active means activity change above about 30%, passing the limit was not always enough;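 further: controls were the assay level and a saturating level of protein; the project sought stronger binding though the title names inhibitors; some compounds called inactive have numbers as strong as hits; positive values seem to mean higher polarization but the record does not say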
# Target sequence (P41235 whole entry, looked up): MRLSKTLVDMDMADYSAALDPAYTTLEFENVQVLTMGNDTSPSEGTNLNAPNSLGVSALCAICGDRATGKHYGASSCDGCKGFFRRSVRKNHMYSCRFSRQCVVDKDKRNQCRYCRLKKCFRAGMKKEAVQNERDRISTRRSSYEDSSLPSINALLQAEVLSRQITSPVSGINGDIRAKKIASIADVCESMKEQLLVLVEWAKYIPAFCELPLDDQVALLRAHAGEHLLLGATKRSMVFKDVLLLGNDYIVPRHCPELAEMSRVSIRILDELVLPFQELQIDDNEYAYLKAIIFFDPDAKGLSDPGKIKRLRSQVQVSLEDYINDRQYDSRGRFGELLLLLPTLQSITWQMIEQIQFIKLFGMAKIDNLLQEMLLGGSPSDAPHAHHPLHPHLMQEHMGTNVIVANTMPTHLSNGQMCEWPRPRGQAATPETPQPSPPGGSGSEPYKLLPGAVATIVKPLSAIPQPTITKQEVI
# FGF22 binding = shifts melting point of recombinant human FGF22 | Q9HCT0 | hit rate 1.5% among 340,000 | AID 651658 | calls only at 9.99 µM | recombinant FGF22 thermal shift, SYPRO orange fluorescence; percent of sucrose octasulfate shift, DMSO zero;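 active means melting point raised past a set limit in the mean and every replicate; inconclusive means no clear call; three in four hits are not shown here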
# rRNA inh HTS OD600 = also measured in rRNA inh HTS; calls as there; OD600 change, %; measured here: OD600 growth;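 optical density of the mix in the first replicate; 0 = DMSO median and -100 = no signal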
# rRNA inh HTS RFP = further read-out of rRNA inh HTS, marked with its call; RFP signal change, %; measured here: RFP humanized mutant strains;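 first replicate; 0 = DMSO median and -100 = no signal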
# Starred values were filed as active, the others as inactive; i = inactive; ? = inconclusive; . = not tested or not shown. Not all compounds are listed; the hit share may differ from the screen's.
MLL AF4-AF9 inh,ALR inh,rRNA inh HTS,rRNA inh HTS OD600,rRNA inh HTS RFP,Vif A3G,Ecoli growth,HNF4A DNA FP,FGF22 binding,SMILES
5.4,-17,9,-3,-1.9,6%,0.69,0.3,i,CCOC(=O)C(=CNCC(=O)O)C(=O)OCC
2.7,0,-1,-1,-1.5,-11%,0.7,-0.4,i,CS(=O)(=O)c1nc(S(=O)(=O)c2ccc(Cl)cc2)c(N2CCN(CCO)CC2)s1
5.1,.,-3,-2,2.8,.,.,.,i,CN1C(=O)c2cc(NC(=O)c3ccc(F)c(F)c3)ccc2OC[C@H]2O[C@H](CC(=O)N[C@@H]3CCN(Cc4ccccc4)C3)CC[C@H]21
.,3,.,.,.,-42%,0.77,-4.3,.,O=C(CCSc1nnc2ccc3ccccc3n12)Nc1ccc(F)cc1
-5.7,5,12,-3,2.8,.,.,-2.8,i,OCC[C@@H]1C[C@H](O)[C@@H](O)[C@@]2(CCCc3ccccc3O2)O1
.,-1,.,.,.,9%,.,7.5,.,COc1ccc(NS(=O)(=O)c2ccc(S(=O)(=O)N3CCCC3)cc2)cc1
-3.2,.,-2,0,-0.3,.,.,.,i,CCCC(=O)Nc1ccc2c(c1)OC[C@H](C)NC[C@@H](C)[C@H](OC)CN(C)C2=O
-0.7,.,-1,-4,1.0,.,.,.,i,C[C@@H]1CN([C@H](C)CO)S(=O)(=O)c2ccc(-c3ccccc3)cc2O[C@@H]1CN(C)S(C)(=O)=O
2.7,.,-2,1,3.9,.,.,.,i,C[C@@H]1CN([C@H](C)CO)C(=O)c2cc(/C=C/c3ccccc3)cnc2O[C@H]1CN(C)S(=O)(=O)c1ccccc1
2.3,.,0,-3,0.2,.,.,.,i,COc1ccccc1CNC(=O)C[C@@H]1C=C[C@@H](NC(=O)CN(C)C)[C@@H](CO)O1
0.0,-1,4,7,-0.8,-4%,0.69,-0.5,i,Cc1ncc([N+](=O)[O-])n1CC(=O)Nc1cc(Cl)ccc1Cl
1.4,17,-2,6,2.1,8%,0.71,1.9,i,COc1ccc(N=Nc2c(C)[nH][nH]c2=O)cc1
-5.7,-5,-9,-2,-1.7,-7%,0.7,0.3,i,Cn1c(COc2ccc(F)cc2)nc2ccccc21
.,?,.,.,.,-4%,0.76,-0.1,.,O=C(Oc1ccc(=O)n(-c2ccccc2)n1)c1ccc(Cl)cc1
-4.5,.,2,3,1.8,-8%,0.7,2.3,i,O=c1cc(-c2ccco2)oc2ccccc12
-4.5,10,-1,6,-2.8,26%,0.64,-0.4,i,COc1ccc(NC(=O)CC2C(=O)NCCN2C(=O)c2ccc(Cl)cc2)cc1 (configuration not stated)
-2.0,.,-3,-5,0.2,.,.,.,i,C[C@@H]1CN([C@H](C)CO)C(=O)c2cccc(NC(=O)Nc3cccc4ccccc34)c2O[C@H]1CN(C)S(=O)(=O)c1cn(C)cn1
.,-1,.,.,.,-4%,0.72,-0.8,.,Cc1ccc(S(=O)(=O)NCc2cn3c(C)csc3n2)cc1
.,0,.,.,.,3%,0.74,0.1,.,CCOC(=O)N1CCN(Cc2nc(N)nc(Nc3ccccc3C)n2)CC1
1.9,.,1,11,1.0,.,.,.,i,CCCN(C)C[C@@H]1Oc2cc(C#CCOC)ccc2S(=O)(=O)N([C@@H](C)CO)C[C@@H]1C
.,1,.,.,.,-2%,0.72,-0.2,.,OC1C2(Cc3ccccc3)CN3CCN(C2)CC1(Cc1ccccc1)C3 (configuration not stated)
-0.3,-13,6,11,0.3,.,0.72,1.1,i,COc1ccc(N(C(=O)Cc2cccs2)C(C(=O)NC2CCCC2)c2ccncc2)cc1 (configuration not stated)
-0.7,0,2,4,-2.8,.,0.63,-5.5,i,Cc1ccc(NC(=O)CCCCCN2C(=O)[C@@H]3Cc4ccccc4CN3C2=O)c(C)c1
-0.3,.,-3,1,-0.3,.,.,.,i,Cc1ccc(S(=O)(=O)Nc2ccc3c(c2)C(=O)N([C@H](C)CO)C[C@@H](C)[C@@H](CN(C)Cc2ccc(C(=O)Nc4ccccc4N)cc2)O3)cc1
3.0,0,-5,-13,-1.3,1%,0.66,-1.8,i,CCOc1ccccc1OCCCNCc1ccco1
-2.2,.,3,1,-5.9,.,.,.,i,COCc1cn(CC[C@@H]2CC[C@@H](NC(=O)c3ccccc3)[C@H](CO)O2)nn1
6.1,.,-13,-58,20,.,.,.,i,C[C@H]1CN([C@@H](C)CO)C(=O)c2cc(NC(=O)Nc3ccc(F)cc3)ccc2O[C@H]1CN(C)Cc1ccc2c(c1)OCO2
0.8,6,-9,-23,-3.5,.,0.7,1.6,i,CN(CC(=O)Nc1cccc(F)c1)C(=O)c1cccc(S(=O)(=O)N2CCN(c3ccccc3)CC2)c1
-16,-2,6,5,0.7,-7%,0.68,-2.3,i,O=C(NC1CCCC1)C(c1ccccn1)N(C(=O)c1csnn1)c1ccccc1Cl (configuration not stated)
.,-3,.,.,.,0%,0.73,0.0,.,CC(C)NC(=O)COC(=O)c1ccccc1Oc1ccccc1
-5.9,.,1,2,-2.8,.,.,.,i,CC(C)NC(=O)N1CCCCN2[C@H](CO)[C@H](c3ccc(Br)cc3)[C@@H]2C1
0.4,.,0,1,0.2,.,.,.,i,COc1ccc(CN(C)C[C@@H]2OCCCC[C@H](C)Oc3ccc(NC(=O)NC(C)C)cc3C(=O)N([C@@H](C)CO)C[C@@H]2C)cc1
.,.,-2,-11,-2.2,.,0.61,-1.8,i,COCCNC(=O)c1ccc2c(c1)S(=O)(=O)c1ccccc1C2=O
-0.4,.,12,8,-0.9,.,.,1.0,i,O=C(COC(=O)CSc1ccc(F)cc1)NC1CC1
-5.4,-1,8,17,9.6,6%,0.62,0.0,i,O=[N+]([O-])c1ccc(Sc2ccccc2)nc1
.,2,.,.,.,0%,0.7,5.0,.,O=C(O)c1ccccc1C(=O)NCC(O)COCC1CC=CCC1 (configuration not stated)
.,-3,.,.,.,?,0.68,-12,.,Cc1cc(C)nc(/N=C2\NC(=O)CC3C(=O)NCCN23)n1 (configuration not stated)
0.0,-15,-23*,-14*,-0.4*,.,0.72,1.6,i,CC(=O)Oc1ccc(N(C(C)=O)S(=O)(=O)c2ccc(Cl)cc2)c2ccccc12
.,.,.,.,.,24%,0.68,-26,.,O=C(OCc1cc(=O)n2c(n1)sc1ccccc12)c1cccc(O)c1
-1.6,-5,-8,-20,4.8,-11%,0.65,1.2,i,COc1cc(NS(=O)(=O)c2ccc3[nH]c(=O)oc3c2)cc(OC)c1
2.6,26,10,5,0.7,-2%,0.71,1.7,i,CCOCCCNC(=O)CCc1nnc2n(CCC(C)C)c(=O)c3ccccc3n12
-0.6,-5,10,8,1.7,-1%,0.69,2.7,i,Cc1ccccc1CSc1nc(C(C)(C)C)cc(=O)[nH]1
-2.5,.,2,-6,7.4,.,.,.,i,O=C(C[C@@H]1CC[C@@H]2[C@H](COC[C@@H](O)CN2C(=O)c2ccccc2F)O1)NCc1ccc(F)cc1
4.8,.,-2,-11,-4.0,.,.,.,i,C[C@H](CO)N1C[C@H](C)[C@H](CN(C)S(=O)(=O)c2ccccc2)Oc2c(NC(=O)Nc3ccc4c(c3)OCO4)cccc2C1=O
-0.2,-3,3,1,-0.1,.,0.7,-0.6,i,O=C(O)CNC(=O)c1cccc(C(F)(F)F)c1
1.9,1,.,.,.,.,0.73,-0.6,i,N#Cc1c(-c2ccc(F)cc2)cc(C2CC2)nc1SCC(=O)c1cccs1
0.6,.,-6,-16,-5.0,.,.,.,i,COc1cccc(-c2ccc3c(c2)[C@H]2[C@H](CCN2S(=O)(=O)c2ccccc2F)[C@H](CO)N3)c1
.,-1,.,.,.,-8%,0.69,1.4,.,Cn1c(=O)[nH]c(=O)c2c1nc(N(CCO)Cc1ccccc1)n2Cc1ccccc1Cl
.,-3,.,.,.,-2%,0.6,-0.3,.,O=[N+]([O-])c1ccc(NCCNc2ccc(Cl)nn2)cc1
2.4,-3,10,3,-6.4,.,0.71,-2.6,i,COc1ccc(CC(=O)NNC(=O)c2nn(Cc3ccccc3)c(=O)c3ccccc23)cc1OC
.,-2,6,10,2.5,.,0.68,-1.5,i,O=C(Cn1ccc(NC(=O)OCc2ccccc2)nc1=O)NCCN1CCOCC1
-0.3,.,3,13,-2.8,.,.,.,i,O=S1(=O)c2ccc(Br)cc2OC[C@H](c2ccccc2)N1Cc1ccccc1
.,-1,.,.,.,7%,0.66,4.5,.,CC(OC(=O)CCc1nc2ccccc2[nH]c1=O)C(=O)c1ccccc1 (configuration not stated)
-0.9,-7,17,6,1.2,4%,.,2.4,i,CC(/C=C/c1ccccc1)=N/NC(=O)C(O)c1ccccc1 (configuration not stated)
.,-3,.,.,.,.,0.71,-2.4,.,CC(=O)c1ccc(OCCCCCCCOc2ccc(C(C)=O)cc2)cc1
.,-12,.,.,.,.,0.74,1.5,.,O=C(/C=C/c1ccccc1Cl)Nn1cnc2ccccc2c1=O
.,-7,.,.,.,45µM*,0.7,3.9,.,COC(=O)C1=C(N)OC2=C(C(=O)CCC2)C1c1cccs1 (configuration not stated)
2.1,.,-4,-8,0.4,-2%,.,-1.9,i,COc1ccc(N2CCN(CCCn3cnc4c(SC)ncnc43)CC2)cc1
-0.6,11,23,17,2.9,.,0.72,-2.7,i,COc1ccccc1CNC(=O)CN1C(=O)NC2(CCCC2)C1=O
-1.8,.,2,7,-1.7,.,.,.,i,CCC(=O)N1C[C@@H](C)[C@@H](OC)CN(C)C(=O)c2ccc(NS(C)(=O)=O)cc2OC[C@@H]1C

# A draw from above in order of number of heavy atoms, low to high:
MLL AF4-AF9 inh,ALR inh,rRNA inh HTS,rRNA inh HTS OD600,rRNA inh HTS RFP,Vif A3G,Ecoli growth,HNF4A DNA FP,FGF22 binding,SMILES
.,-1,.,.,.,7%,0.66,4.5,.,CC(OC(=O)CCc1nc2ccccc2[nH]c1=O)C(=O)c1ccccc1 (configuration not stated)
.,-3,.,.,.,.,0.71,-2.4,.,CC(=O)c1ccc(OCCCCCCCOc2ccc(C(C)=O)cc2)cc1
.,-2,6,10,2.5,.,0.68,-1.5,i,O=C(Cn1ccc(NC(=O)OCc2ccccc2)nc1=O)NCCN1CCOCC1
0.6,.,-6,-16,-5.0,.,.,.,i,COc1cccc(-c2ccc3c(c2)[C@H]2[C@H](CCN2S(=O)(=O)c2ccccc2F)[C@H](CO)N3)c1

# Next entries follow.
MLL AF4-AF9 inh,ALR inh,rRNA inh HTS,rRNA inh HTS OD600,rRNA inh HTS RFP,Vif A3G,Ecoli growth,HNF4A DNA FP,FGF22 binding,SMILES
.,86*,.,.,.,18%,0.72,-1.0,.,COc1cccc(OC)c1C(=O)Nc1ccc(N2CCCCC2)cc1
-1.6,-8,3,4,-0.8,.,.,-2.7,i,CCOc1ccc(/C=N/NC(=O)c2nnn(-c3nonc3N)c2-c2cccs2)cc1
-0.2,.,19,19,5.5,-6%,.,0.9,i,CC(C)CN(C(=O)CN(C)C(=O)Cc1c(F)cccc1Cl)c1c(N)n(CC(C)C)c(=O)[nH]c1=O
.,-10,.,.,.,4%,0.71,-0.4,.,Cc1c(NC(=O)Cn2[nH]c(=O)c3ccccc3c2=O)c(=O)n(-c2ccccc2)n1C
-1.6,.,1,-10,19,.,.,.,i,C[C@@H]1CN([C@H](C)CO)C(=O)Cc2cc(NC(=O)CCCCCC(=O)Nc3ccccc3N)ccc2O[C@H]1CN(C)Cc1ccc(C(F)(F)F)cc1
0.0,-2,7,5,-5.8,3%,0.66,1.6,i,CCOC(=O)C1=C(C)NC(=O)CC1c1ccccc1OC (configuration not stated)
1.1,-1,10,9,-3.1,.,0.7,0.3,i,O=C(NCc1ccccn1)c1nc(Cn2ccc([N+](=O)[O-])n2)no1

# From PubChem BioAssay
